# Bioassay records: PubChem, several laboratories
# UCH37 DUB inh – inhibitors of human deubiquitinating enzyme UCH37. purified proteasome/UCH37, Ub-AMC cleavage fluorescence. 330,000 compounds, 0.33% hits. AID 588478. Q9Y5K5. inhibition, % (test concentration not listed);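 active means mean of two replicates above 20%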;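 further: 0% = compound-free wells with enzyme and 100% = wells lacking proteasome; stock transfer was 100 nL into about 20 µL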
# Target sequence (Q9Y5K5 whole entry, looked up): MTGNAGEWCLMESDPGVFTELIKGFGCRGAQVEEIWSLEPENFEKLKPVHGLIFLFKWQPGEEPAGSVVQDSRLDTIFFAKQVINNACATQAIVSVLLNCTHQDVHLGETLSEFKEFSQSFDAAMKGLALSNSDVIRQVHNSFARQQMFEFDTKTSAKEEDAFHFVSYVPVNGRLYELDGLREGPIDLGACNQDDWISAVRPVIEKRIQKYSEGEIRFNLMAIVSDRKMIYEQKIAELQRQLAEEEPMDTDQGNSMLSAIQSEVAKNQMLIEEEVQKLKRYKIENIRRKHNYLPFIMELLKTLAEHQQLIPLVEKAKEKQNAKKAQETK
#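 assay system = human UCH37 enzyme supplied as purified proteasome complex | amount = proteasome at 0.15 nM in the dispensed enzyme solution | schedule = 30 min compound-proteasome preincubation then 25 min substrate reaction, room temperature | measured by = fluorescence, ex 355 nm, em 460 nm | benchmarks = no-proteasome wells (full inhibition) and compound-free wells (no inhibition)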
# FGF22 binding – FGF22 (human) thermal shift binding. Q9HCT0. recombinant FGF22 thermal shift, SYPRO orange fluorescence; percent of sucrose octasulfate shift, DMSO zero. calls only at 9.99 µM. 340,000 compounds, 1.5% hits. AID 651658;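 active means melting point raised past a set limit in the mean and every replicate; three in four hits are not shown here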
# Target sequence (Q9HCT0 whole entry, looked up): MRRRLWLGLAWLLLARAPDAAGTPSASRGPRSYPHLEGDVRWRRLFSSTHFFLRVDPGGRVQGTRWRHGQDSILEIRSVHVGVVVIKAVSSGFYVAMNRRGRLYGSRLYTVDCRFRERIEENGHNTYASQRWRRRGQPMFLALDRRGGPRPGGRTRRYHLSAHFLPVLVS
# HNF4A DNA FP – change in binding of human HNF4 alpha to DNA | activity change, % at 10 µM | HNF4a-FITC DNA binding, fluorescence polarization, 1 h | 360,000 compounds, 0.3% hits | P41235; in the data active means activity change above about 30%, passing the limit was not always enough;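 further: controls were the assay level and a saturating level of protein; the project sought stronger binding though the title names inhibitors; some compounds called inactive have numbers as strong as hits; positive values seem to mean higher polarization but the record does not say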
# Ecoli growth – inhibitors of Escherichia coli growth. OD600, 23 h; active compounds read low. OD600 absorbance (test concentration not listed). 330,000 compounds, 0.21% hits;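 active means OD600 absorbance below the run mean of sample wells minus 3.6 SD, in any replicate, cut at about 0.56 in these data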;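 further: stock transfer was 300 nL into about 60 µL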
# LANA-H2A inh – blocks KSHV LANA binding to histone H2A/H2B; cell-free LANA-H2A/H2B peptide, fluorescence polarization; inhibition, % (concentration not given with the values); 320,000 compounds, 0.6% hits; AID 2629; in the data active means inhibition mostly above about 10%, no sharp cut-off; inactive means mostly below about 6.7%;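 further: stock transfer was 7.5 nL into about 10 µL; 0% = median of vehicle wells and 100% = median of positive control wells; one replicate is shown; the record names a cut of 25% in any replicate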
# Beta2AR agonist – activates human beta-2 adrenergic receptor causing internalization; response, % (concentration not given with the values); 340,000 compounds, 0.43% hits; AID 504454; P07550; Am2.2-beta2AR cells, FAP receptor internalization, flow cytometry; reference of the scale not given here;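 active means response above a set limit, near 3 SD of response in nonfluorescent compounds, cut at about 42% in these data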;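 further: stock transfer was 100 nL into about 11 µL; a reference agonist was the positive control; negative values mostly stem from fluorescent compounds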
# ALR H2O2 inh – inhibitors of human sulfhydryl oxidase ALR; P55789; purified ALR, DTT oxidation, H2O2 HRP-luminol luminescence; inhibition, % (test concentration not listed); 290,000 compounds, 3.8% hits;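 active means mean and each replicate at 75% or more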;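 further: stock transfer was 7.5 nL into about 7.5 µL; 0% = neutral wells and 100% = wells with inactivated enzyme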
# Target sequence (P55789 whole entry, looked up): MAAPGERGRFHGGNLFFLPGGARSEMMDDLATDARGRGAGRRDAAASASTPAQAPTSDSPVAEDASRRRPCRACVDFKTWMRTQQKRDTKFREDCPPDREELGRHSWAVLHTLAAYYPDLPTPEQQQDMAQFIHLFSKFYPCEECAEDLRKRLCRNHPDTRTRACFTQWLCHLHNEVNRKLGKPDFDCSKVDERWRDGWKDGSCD
# The depositor's hits bear a star; i = inactive; . = no result given; + = active, no number. These rows are one share of the data; the hit share may differ from the screen's.
Beta2AR agonist	UCH37 DUB inh	ALR H2O2 inh	FGF22 binding	compound	Ecoli growth	LANA-H2A inh	HNF4A DNA FP
1	0.8	14	i	COc1ccccc1NC(=O)CSc1nnc(-c2ccccc2)o1	0.69	-4.6	0.4
13	4.8	13	+	CCC(Sc1nc(-c2cccc(OC)c2)c(C#N)c(=O)[nH]1)C(=O)Nc1nnc(C(C)C)s1 (stereo unspecified)	0.68	2.9	-1.4
10	3.9	-2	i	COc1ccc(CNC(=O)C(C)OC(=O)C23CC4CC(CC(O)(C4)C2)C3)cc1 (stereo unspecified)	0.69	0.6	0.0
1	0.0	-3	i	Cc1cc(Cl)ccc1OCC(=O)NNC(=O)c1cccnc1	0.69	4.5	-3.8
-2	0.5	-5	.	COc1ccc(OC)c(Nc2nc3nonc3nc2N2CCCCC2)c1	0.71	7.0	40*
-8	-2.3	-26	i	Cn1c(=O)c(=O)n(C)c2cc(S(=O)(=O)CCC(=O)N3CCCCC3)ccc21	0.77	-1.5	1.3
6	.	.	i	COc1ccccc1/C=C/C=N/NC(=O)CCn1cnc2ccccc21	.	-1.4	-0.5
6	17	-5	i	CN(C)/C(Cn1cncn1)=C1/N=C(c2c(F)cccc2F)OC1=O	0.68	2.6	-2.1
-5	0.9	-4	i	CCc1nn(CC(=O)N2CCN(c3cc(C)ccc3C)CC2)c(=O)c2cc3occc3n12	0.68	-0.4	2.7
15	-85	-23	.	COc1ccccc1CN(Cc1cc2cc3c(cc2[nH]c1=O)OCCO3)Cc1nnnn1Cc1ccco1	0.68	-4.6	-5.0
-2	9.4	2	.	Cc1[nH]nc(Nc2ccccc2)c1[N+](=O)[O-]	0.71	-3.4	-2.2
0	2.4	-6	.	COCCn1nnnc1CN1CCOCC1	0.7	-7.2	2.3

# Full records, looked up by structure.
# CCc1nn(CC(=O)N2CCN(c3cc(C)ccc3C)CC2)c(=O)c2cc3occc3n12 reads Beta2AR agonist = -5; UCH37 DUB inh = 0.9; ALR H2O2 inh = -4; FGF22 binding = i; Ecoli growth = 0.68; LANA-H2A inh = -0.4; HNF4A DNA FP = 2.7
# Cn1c(=O)c(=O)n(C)c2cc(S(=O)(=O)CCC(=O)N3CCCCC3)ccc21 reads Beta2AR agonist = -8; UCH37 DUB inh = -2.3; ALR H2O2 inh = -26; FGF22 binding = i; Ecoli growth = 0.77; LANA-H2A inh = -1.5; HNF4A DNA FP = 1.3

# (continued)
Beta2AR agonist	UCH37 DUB inh	ALR H2O2 inh	FGF22 binding	compound	Ecoli growth	LANA-H2A inh	HNF4A DNA FP
10	6.0	-9	i	Cc1cc(C(=O)NC2CCCc3c2cnn3-c2cccc(C)c2C)n(C)n1 (stereo unspecified)	0.7	1.0	0.8
-5	5.9	-1	i	c1ccc2c(c1)CC(CN1CCNCC1)O2 (stereo unspecified)	0.7	-0.9	-2.3
-15	.	-1	i	O=C(CCN1C(=O)c2cccc3cccc(c23)C1=O)Nc1ccon1	.	-1.6	2.8
1	3.6	-1	.	CC1CCc2sc(C(=O)NCc3ccccn3)cc2C1 (stereo unspecified)	0.7	-0.7	3.8
-13	.	1	i	C/C(CC(=O)Nc1c(C)cc(C)cc1C)=N\NC(=O)Cc1ccccc1	.	2.4	0.6
3	-1.5	-10	i	CC1CN(C(=O)CCC(=O)N2CCN(c3ccccn3)CC2)c2ccccc2O1 (stereo unspecified)	0.79	-10	-0.5
7	3.3	0	.	Cc1ccsc1C(=O)OCC(=O)NCc1ccc2c(c1)OCO2	0.79	-2.2	1.9
6	-1.0	7	i	CC(C)n1c(-c2ccncc2)n[nH]c1=S	0.69	-1.6	-3.1
3	-1.5	-21	i	O=C(CCC1CCCN(C(=O)c2ccc3[nH]ccc3c2)C1)N1CCN(c2ccccn2)CC1 (stereo unspecified)	0.69	0.2	3.2
4	-19	0	i	COc1ccc(-c2csc(NC(=O)c3cccc(N4C(=O)CCC4=O)c3)n2)cc1C	0.68	-7.9	-0.3
2	.	-2	i	CC(C)/C(C=O)=C(/NC1CCCCC1)c1ccccc1	.	0.5	0.3
5	-0.3	-9	.	O=C(NCCCN=C1NS(=O)(=O)c2ccccc21)c1ccncc1	0.7	4.3	3.2

# A second format for part of the listing above.
Beta2AR agonist	UCH37 DUB inh	ALR H2O2 inh	FGF22 binding	Ecoli growth	LANA-H2A inh	HNF4A DNA FP	SMILES
7	3.3	0	.	0.79	-2.2	1.9	Cc1ccsc1C(=O)OCC(=O)NCc1ccc2c(c1)OCO2
6	-1.0	7	i	0.69	-1.6	-3.1	CC(C)n1c(-c2ccncc2)n[nH]c1=S

# (next part)
Beta2AR agonist	UCH37 DUB inh	ALR H2O2 inh	FGF22 binding	compound	Ecoli growth	LANA-H2A inh	HNF4A DNA FP
-3	1.9	-2	i	O=C(NCc1ccc(-c2csnn2)cc1)C1CC1	0.68	-2.1	-1.6
12	.	-2	i	COCCCn1c(=O)/c(=C\c2ccc(OC(F)F)c(OC)c2)s/c1=C(/C#N)C(=O)NCCOC	.	-22	74*
1	3.7	-8	i	CCN(CC(=O)Nc1ccc2c(c1)OCCO2)CC(=O)Nc1ccc2c(c1)OCO2	0.7	-3.1	-2.6
-1	-8.5	13	i	O=C(NCc1csc(-c2cccs2)n1)c1ccccc1	0.62	-3.7	3.7
4	3.8	13	i	Cc1c(CCOC(=O)C23CC4CC(CC(C)(C4)C2)C3)sc[n+]1CC(=O)c1ccccc1	0.62	4.8	-0.5
11	5.6	2	.	O=C(CCCSc1ccc(Cl)cc1)Nc1ccccc1O	0.59	3.5	-0.1
-6	0.6	8	i	COc1ccc(NC(=S)NC(=O)c2cccnc2)cc1	0.68	3.4	3.5
4	3.1	40	i	COc1ccc(CCNc2nc(-c3ccc(F)cc3)c(CC(=O)O)s2)cc1OC	0.67	0.6	4.2
4	-0.2	-7	i	C=C1C[C@H](O[C@@H]2O[C@H](CO)[C@@H](O)[C@H](O)[C@H]2O)[C@@H]2[C@H](OC(=O)[C@H]2C)[C@H]2[C@H](C)[C@@H](O)C[C@@H]12	.	-3.9	-1.8
16	1.6	17	i	O=C(NCC(c1ccco1)N1CCc2ccccc21)C(=O)Nc1ccc(F)cc1F (stereo unspecified)	0.7	-3.4	-2.3
-2	1.4	-23	i	COc1ccc(N(CC(=O)Nc2ccc(OC)c(OC)c2)S(=O)(=O)c2ccccc2)cc1Cl	0.65	-1.5	-3.2
-8	3.1	-8	i	CN(N)c1nc(C(F)(F)F)nc2ccccc12	0.7	-6.0	2.2
-4	13	68	i	CC1(C)CC(=O)C(C=Nc2ccc(N)cc2)=C(O)C1	0.66	-0.3	0.8
-11	4.2	-7	i	CC(C)(C)C(=O)Nc1nc(NC(=O)C(C)(C)C)nc(-c2ccccc2Cl)n1	0.63	-1.6	0.1
-2	0.0	-1	i	CCc1cccc(CC)c1NC(=S)Nc1ccccc1	0.65	-4.9	-3.8
-5	13	5	i	Cc1c(NC(=O)c2ccc(-c3ccc([N+](=O)[O-])cc3Cl)o2)c(=O)n(-c2ccccc2)n1C	0.69	0.7	-2.0
7	.	-1	i	CC(NC(=O)COc1cccc(Br)c1)C(=O)O (stereo unspecified)	.	1.9	3.4
4	5.5	-5	.	Cc1ccc2c(c1)sc1nc(=O)n(-c3ccc(Cl)c(Cl)c3)c(=O)n12	0.72	0.2	-0.2
-1	-0.8	-16	.	COc1ccc(C(=O)N[C@H](C(=O)Nc2ccc(OC)nc2)C(C)C)cc1	0.74	-4.4	-0.6
-1	-5.8	-4	i	COCCCNc1nc2ccccc2[nH]c1=O	0.67	2.4	3.8
-5	-235	-22	i	COc1ccc2c(OC)c3ccoc3nc2c1OC	0.7	7.6	-4.8
4	-1.6	-2	i	CC1CCN(C(=O)c2ccc(S(=O)(=O)NCc3ccco3)cc2)CC1	0.7	-1.9	-2.8
-3	4.5	-2	i	CCCn1nnnc1NCc1ccc(CC)cc1	0.69	0.6	2.1
-2	-0.1	-3	.	CCOC(=O)c1nnn(CC(=O)N2N=C(c3ccc(Cl)cc3)CC2c2ccc(OC)cc2)c1C(=O)OCC (stereo unspecified)	0.74	-0.5	0.5
11	1.9	.	.	Cc1cc(C)nc(SCCC(=O)N(C)C)n1	0.68	0.0	1.9
3	6.4	1	i	CCOC(=O)c1cc(-c2csc(-c3cccc(Cl)c3)n2)on1	0.69	1.0	0.3
-1	-2.4	1	i	COc1ccc(NC(=O)CN(C)C(=O)c2cccc3ccccc23)cc1	0.68	4.6	-1.4
0	1.5	.	i	COc1ccc(-c2noc(CCC(=O)N3CCN(c4ccc(F)cc4)CC3)n2)cc1	0.69	.	5.6
7	0.5	4	.	COc1cccc(C(=O)N(Cc2ccco2)Cc2cc3cccc(C)c3[nH]c2=O)c1	0.67	0.4	3.4
-2	4.8	-4	i	COc1ccc(C2=Nn3c(nnc3-c3ccccc3Cl)SC2)cc1OCC1CC1	0.69	-0.8	2.0
-13	-1.5	20	.	O=C(c1ccc(S(=O)(=O)N2CCOCC2)cc1)N1CCN(c2ccc(F)cc2)CC1	0.71	3.6	-2.5
-4	4.3	-2	i	Cc1cccc(NC(=O)Nc2ccc(Cl)c(Cl)c2)n1	0.63	-6.4	0.6
5	4.5	.	i	CCOC(=O)C1(CCOc2ccccc2)CCN(Cc2cc(OC)c(O)c(OC)c2)CC1	0.65	-0.1	-0.1
14	0.1	-5	i	NC(=O)CC(NC(=O)Cc1cccc2ccccc12)c1ccc(N2CCN(c3ccc(F)cc3)CC2)c([N+](=O)[O-])c1 (stereo unspecified)	0.7	0.6	0.9
4	6.6	99*	.	Cc1ccc(NC(=O)CSc2nnc(-c3ccco3)c(-c3ccco3)n2)cc1	0.68	4.9	-12
-5	4.1	3	i	CCN(CC(=O)NCc1cccs1)c1ccc(S(=O)(=O)N2CCCC2)cn1	0.67	0.5	1.6
-10	-3.4	1	.	CCCCn1c(CCNC(=O)c2cccs2)nc2ccccc21	0.8	1.8	-1.5
-5	0.2	0	.	Cc1cc(C)c2c(CC(=O)Nc3nccs3)coc2c1	0.77	2.7	0.0
0	5.1	-5	i	CCS(=O)(=O)N1CCC(C(=O)Nc2ccc(C(C)=O)cc2)CC1	0.68	-1.3	4.7
0	2.4	.	i	Cc1ccsc1C(=O)OCC(=O)N(C)C1CCCCC1	0.65	0.2	0.4
-3	-98	-5	.	Cc1cc(N2CCN(C)CC2)nc2ccc(NC(=O)CCC(=O)NCc3ccco3)cc12	0.71	3.1	-1.5
-3	3.1	-2	.	O=C(Nc1cnc2ccccc2c1)N1CCOCC1	0.68	-2.8	-4.4
-6	5.2	0	i	Cc1ccccc1C(=O)c1cccn1CC(=O)NC(C)c1ccccc1 (stereo unspecified)	0.69	2.8	-1.1
-6	1.7	-13	i	COc1ccccc1-n1c(N)cc(=O)nc1SCC(=O)Nc1cc(C)on1	0.69	0.9	-3.6
-3	0.7	3	i	O=C(NCc1ccc2c(c1)OCO2)c1nc(Cn2ccc([N+](=O)[O-])n2)no1	0.68	5.5	5.5
-7	-4.3	0	.	COc1ccc(NC(=O)CSc2nnc3c4c(nc(-c5ccccc5)n23)CC(C)(C)OC4)cc1	0.65	-2.8	-2.5
2	1.4	7	i	O=C(NCCc1ccccc1)C(=Cc1ccc(C(=O)O)cc1)C(=O)NCCc1ccccc1	0.71	-1.2	-1.1
-2	.	-1	i	Cc1cc(NC(=O)COC(=O)c2cnccn2)ccc1Br	.	5.8	1.1
4	4.7	-5	i	O=C1C(Oc2ccc(Cl)cc2)C(c2ccc3c(c2)OCO3)N1CC1CCCO1 (stereo unspecified)	0.68	1.2	4.8
-3	0.3	.	i	CCN(CC(=O)Nc1ccc(OC)cc1)C(=O)c1ccc2[nH]c3c(c2c1)CC(C)CC3 (stereo unspecified)	0.65	-2.6	-5.5
1	4.5	-8	.	COc1cc(NS(=O)(=O)c2ccc(NC(C)=O)cc2)nc(OC)n1	0.73	3.7	-2.6
-6	4.2	-6	i	Cc1ccc(NC(=O)Cn2c(=S)[nH]c3ccccc32)cc1	0.71	3.1	-0.2
2	-0.2	6	.	COc1cc(C(=O)NCC(C)C)cc(OC)c1OC	0.64	-1.4	-0.9
